Source: PubChem
MgrA-DNA mod: S. aureus MgrA-DNA binding modulation; fluorescence polarization; inhibition, %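 (about 10 µg/mL by stock and volumes)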; AID 602314; hit rate 0.13% among 84,000;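 active = above 50% in either of two replicates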;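 note: 0% = protein plus DNA without compound and 100% = DNA alone without protein; higher means less MgrA bound to DNA so lower polarization; one replicate is shown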
Sa helicase inh: S. aureus DNA helicase inhibition | AID 485395 | hit rate 0.05% among 120,000 | purified S. aureus helicase, fluorescence unwinding assay; about half of the hits fall short of the stated cut | inhibition, %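 (tested at about 80 µM)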;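 active = both duplicates at 50% or more, or one of them with a favoured structure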;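 note: 0% = mean of negative control wells and 100% = mean of positive control wells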
The depositor's hits bear a star; · = not tested or not shown; & = joins results of further samples. Only part of the results is shown; count on the stated rates, not on these rows.

molecule,MgrA-DNA mod,Sa helicase inh
COc1ccc2ccccc2c1C=Nc1cccc(CO)c1,-1.5,2
CCCCCCNc1ccc(NC(=O)c2ccc(C3CCC(CCCCC)CC3)cc2)c2c1C(=O)c1ccccc1C2=O (stereo unspecified),-2.0,·
Clc1ccc(-c2cnc3n2CCC3)cc1Cl,0.5,8
Cc1ccc(S(=O)(=O)CCn2c(=O)oc3cccnc32)cc1,-0.8,·
CN1C(=O)CS(=O)c2ccc(C(=O)NC3CC3)cc21 (stereo unspecified),0.7,0
CCn1c(SC(C)C(N)=O)nnc1-c1cccs1 (stereo unspecified),·,5
O=C(O)COCC(=O)Nc1ccc(I)cc1,0.0,·
COC(=O)CSc1nc(-c2ccccc2)c(-c2ccccc2)o1,·,-17
Cc1ccc(C)c2[nH]c(=O)c(C(c3nnnn3Cc3ccccc3)N3CCN(C)CC3)cc12 (stereo unspecified),0.9,1
CC(=O)NC(=O)c1cc2ccccc2oc1=Nc1ccccc1,·,-18
CC(C)(C)c1ccc(O)c(C(=O)Oc2ccccc2)c1,0.7,-2
O=C(c1ccccc1C(=O)N(c1ccccc1)c1ccccc1)N1CCCCC1,-1.5,12
O=S(=O)(c1cc(Br)c(Cl)s1)N1CCCC1,3.3,·
O=C(O)COCC(=O)N1CCC(n2cccc2)CC1,-3.5,·
O=C(Cc1cccc2ccccc12)NCCOc1ccccc1,-0.4,17
O=C(CS(=O)(=O)c1cn(Cc2ccc(Cl)cc2)c2ccccc12)N1CCCCC1,·,-9
O=C(CSCc1c(Cl)cccc1Cl)Nc1ccc(F)c(Cl)c1,-2.6,·
COC(=O)c1ccc(C(=O)OC)nc1,-2.5,·
CC1CN(c2nc3c(Cl)cc(Cl)cc3s2)CC(C)O1 (stereo unspecified),-0.3,·
c1ccc(-c2ccc(-c3cnc(-c4ccncc4)s3)cc2)cc1,-2.1,·

Compounds from the list above containing two or more sulfur atoms, in the order listed:
molecule,MgrA-DNA mod,Sa helicase inh
CCn1c(SC(C)C(N)=O)nnc1-c1cccs1 (stereo unspecified),·,5
O=S(=O)(c1cc(Br)c(Cl)s1)N1CCCC1,3.3,·

(list continues)
molecule,MgrA-DNA mod,Sa helicase inh
COC(CNS(=O)(=O)c1cccc2cccnc12)OC,2.7,4
Cc1ccc(Nc2ncccc2C(=O)NC2CCCCC2)cc1,0.1,8
CC(C)(O)c1ccc(-c2ccccc2)cc1,-3.9,7
O=C(NCCN1CCNC1=O)c1ccc(OC(F)(F)F)cc1,·,-14
CCOC(=O)C1=C(C)N=c2s/c(=C3\C(=O)N(OC(C)=O)c4ccccc43)c(=O)n2C1c1ccc(C)cc1 (stereo unspecified),0.6,·
S=C(N=P(c1ccccc1)(N1CCOCC1)N1CCOCC1)NCc1cn2ccsc2n1,·,5
O=C(Nc1cccc(NC(=O)C2CC2)c1)C1CC1,0.7,1
CC1CCCCN1S(=O)(=O)c1ccc2c(c1)oc(=O)n2C (stereo unspecified),-0.1,19
CN(CC1CCCO1)S(=O)(=O)c1ccc(C(=O)N2CCOCC2)cc1 (stereo unspecified),·,7
Cc1cc(C(=O)N/N=C/N(C)C)nn1-c1c(Cl)cc(Cl)cc1Cl,·,-10
O=C(O)Cc1ccc(OC(F)F)cc1,·,-17
Cn1c(SCC(=O)NCC2CCCO2)ncc(C(=O)Nc2ccc(F)cc2)c1=O (stereo unspecified),·,14
COc1ccc(/C=C/C(=O)Nc2ccccc2C(F)(F)F)cc1,-0.4,-28
Cn1c(=NC(=O)c2cc(-c3ccccc3)nc3ccccc23)sc2cc(S(C)(=O)=O)ccc21,0.6,-4
COc1ccc(/C=N/N=C(N)N)cc1,·,-14
CN1/C(=C(/O)c2ccccc2)C(=O)c2ccccc2S1(=O)=O,0.4,9
CC(C)Oc1ccc(C(CC(=O)O)C(C)C)cc1 (stereo unspecified),0.2,6
Cc1nc2c(C)cccc2c2c1COC2,·,26
CCC(C)N(Cc1cn(CC)c2ccccc12)C(=S)Nc1ccc(C)cc1 (stereo unspecified),-0.2,10
CCC(=O)c1cn(CC(=O)NCC2CCCO2)c2ccccc12 (stereo unspecified),·,-3

Quoted from above for reference:
molecule,MgrA-DNA mod,Sa helicase inh
Cc1ccc(S(=O)(=O)CCn2c(=O)oc3cccnc32)cc1,-0.8,·
CN1C(=O)CS(=O)c2ccc(C(=O)NC3CC3)cc21 (stereo unspecified),0.7,0
CCn1c(SC(C)C(N)=O)nnc1-c1cccs1 (stereo unspecified),·,5
O=C(O)COCC(=O)Nc1ccc(I)cc1,0.0,·

Later entries.
molecule,MgrA-DNA mod,Sa helicase inh
Cc1nn(CC(=O)NCc2ccc3c(c2)OCO3)c(=O)c2c1sc1ccccc12,0.7,6
C=CCNc1nc(-c2ccccc2)c(C(=O)Nc2cccnc2)s1,·,-3
CC1CC(OC(=O)CN2CCCCC2)CC(C)(C)C1 (stereo unspecified),1.9,13
Cc1cc(C)nc(S/C=C/C(=O)c2ccc(Cl)cc2)n1,-0.9,·
COC(CNC(=O)C1CCN(Cc2nc(-c3ccc(Cl)cc3)oc2C)CC1)OC,-1.3,22
NC(=O)c1ccccc1OCC(=O)N1CCOCC1,0.6,9
FC(F)(F)c1nnc(-c2ccccc2)o1,0.7,6
COc1ccccc1-c1cc(C(=O)N2CCCc3ccccc32)no1,1.2,9
CC(C)c1ccc(N2CC(C)(C)C2=O)cc1,3.3,·
O=C(O)CC(Sc1ncn[nH]1)c1ccc(Cl)cc1 (stereo unspecified),·,-13
CCOc1ccccc1Nc1nc2cc(Cl)ccc2o1,0.9,2
Clc1ccccc1C1Nc2ccccc2S1 (stereo unspecified),2.8,·
CCc1ccc(-c2nc3c(C#N)c[nH]n3c2NCCC(C)C)cc1,0.5,6
NC1CCN(C(=O)C2CC2)CC1,1.2,-12
O=S(=O)(c1ccc2ccccc2c1)N1CCN(Cn2[nH]c(-c3cccs3)nc2=S)CC1,·,21
COc1ccc(N2CCN(CCCNC(=S)Nc3c(C)cccc3C)CC2)cc1,-2.1,-4
Cc1ccc(N2C(=O)C(CC(=O)Nc3ccccc3)N(Cc3ccc4c(c3)OCO4)C2=O)cc1 (stereo unspecified),-1.1,16
O=C(O)c1cc2ccccc2[nH]1,-1.0,·
O=C1CC(Nc2ccccc2)C(=O)N1c1cccc(C(F)(F)F)c1 (stereo unspecified),·,-14
CCOC(=O)c1ccc(NC(=S)Nc2cccc(N)n2)cc1,·,-7

Quoted from the listing.
Sa helicase inh with O=S(=O)(c1ccc2ccccc2c1)N1CCN(Cn2[nH]c(-c3cccs3)nc2=S)CC1 stands at 21
MgrA-DNA mod with CCOc1ccccc1Nc1nc2cc(Cl)ccc2o1 stands at 0.9
Sa helicase inh with NC1CCN(C(=O)C2CC2)CC1 stands at -12

Continued:
Results follow in this order: MgrA-DNA mod	Sa helicase inh
- C=C(C)Cn1c(SCCC(C)C)nc2c1c(=O)[nH]c(=O)n2C
  -2.1	·
- Cc1ccc(-c2nc(C(=O)Nc3ccccn3)c3n2CCCCC3)cc1
  ·	-18
- O=c1oc(-c2ccccc2)nc2sc3c(c12)CCC3
  1.1	·
- CSc1nnc2sc3ccccc3n12
  ·	-14
- CC(=O)N(C(C)=O)S(=O)(=O)c1ccc(N=NN(C)C)cc1
  -2.3	12
- O=C(NCCc1ccc(Cl)cc1)c1cc(=O)[nH]c(=O)[nH]1
  ·	-16
- N#Cc1cc(C#N)c(SCC(=O)N2CCNC2=O)nc1N
  ·	-4
- CCOC(=O)c1cc(C)n(Cc2cccc(C(F)(F)F)c2)n1
  -1.4	·
- CCOC(=O)CSc1ccc([N+](=O)[O-])cc1Cl
  1.4	·
- O=C(OCc1cc(Cl)cc2c1OCOC2)c1cccnc1Cl
  ·	3

A second format for some results above.
MgrA-DNA mod | Sa helicase inh | smiles
· | 3 | O=C(OCc1cc(Cl)cc2c1OCOC2)c1cccnc1Cl
-1.4 | · | CCOC(=O)c1cc(C)n(Cc2cccc(C(F)(F)F)c2)n1

Next section
Results follow in this order: MgrA-DNA mod	Sa helicase inh
- Cc1c(C)c(C)c(S(=O)(=O)N2CC(C)CC(C)C2)c(C)c1C (stereo unspecified)
  -0.6	·
- Cc1c(Cl)cnc(NC(=O)COC(=O)C2CC2)c1Cl
  ·	-24
- O=c1[nH]nc(SCc2nc3ccccc3s2)n1C1CC1
  ·	8
- CC(C)c1nnc(NC(=O)c2cc(Br)ccc2Cl)s1
  ·	14
- CC(CCc1ccccc1)NCc1c(C(=O)O)n(C)c2ccccc12 (stereo unspecified)
  0.3	16
- O=S(=O)(c1ccc(F)c(F)c1)N1CCN(C(c2ccccc2)c2ccccc2)CC1
  -0.7	0
- O=C(Cc1cc(F)cc(F)c1)NCc1ccco1
  -6.6	·
- CON(C)C(=O)c1ccc(C(C)(C)C)cc1
  -3.7	6
- CC1CCCN(S(=O)(=O)c2ccc3c(c2)CCN3C(=O)CCCC(=O)O)C1 (stereo unspecified)
  ·	14
- COc1ccccc1NC(=O)c1c(C)nc2ccccc2c1C(=O)O
  ·	0
- CSC(=NC#N)N1CCN(C(=NC#N)SC)CC1
  ·	4
- Cc1ccc(-c2nnsc2-c2nc3ccccc3[nH]2)cc1
  1.6	-14
- C=CCNC(=O)CSc1ncc2c(n1)-c1c(csc1SC)CC2
  -0.8	·
- Cn1c(=O)n(C)c2cc(Br)c(N)cc21
  9.4	8
- CCNC(=O)Oc1noc2ccccc12
  4.2	·
- CCC1=NN(C(=O)c2ccccc2O)C(O)(c2ccccc2)C1 (stereo unspecified)
  4.0	-3
- CCCN1C(=O)/C(=C2\SC(=S)N(C)C2=O)c2cc(Br)ccc21
  ·	20
- Cc1cc(C)cc(NC(=O)C(C)Oc2ccccc2)c1 (stereo unspecified)
  -2.5	12
- Cc1ccc2oc(-c3ccc(Cl)c(Cl)c3)c(O)c(=O)c2c1
  ·	10
- Cn1cc(SCC(=O)Nc2ccc3c(c2)OCCO3)c2ccccc21
  ·	-7
- COc1cc(-c2n[nH]c(=O)n2C2CCCCC2)cc(OC)c1OC
  0.2	3
- CCn1c(SCc2ccccc2)nnc1-c1cccnc1
  -0.7	11
- CSc1ccc(S(=O)(=O)NCC2CCCO2)cc1 (stereo unspecified)
  -1.2	10
- CCCCCSc1nnc(-c2ccccc2NC(C)=O)c(=O)[nH]1
  ·	31
- CCc1ccccc1OCC(=O)Nc1ccc(S(N)(=O)=O)cc1
  -1.2	4
- O=C(NCc1ccccc1)C1=Cc2sc3c(c2CS1)CCCC3
  2.2	9
- Cc1ccc(S(=O)(=O)N=S(C)(C)=O)cc1
  -1.9	·
- CCOC(=O)CC(Nc1nc(N2CCOCC2)nc(N2CCOCC2)n1)c1ccc(C)cc1 (stereo unspecified)
  -2.0	5
- COCCN(C(=S)Nc1ccc(C(C)C)cc1)C1CCN(C(C)C)CC1
  -4.2	5
- COc1c(S(=O)(=O)n2cnc(C)c2)ccc(Cl)c1Cl
  ·	-23
- COC(=O)c1ccccc1NC(=O)C1=C(C)C(=O)OC12CCN(C(C)=O)CC2
  ·	1
- O=C(CSC(=S)N1CCCC1)NC1CCCCCC1
  ·	-13
- COc1ccc(CN2C(=O)c3ccccc3C2C(=O)NCC2CCCO2)c(OC)c1 (stereo unspecified)
  ·	13
- N#CC1=C(SCC(=O)c2ccc(F)cc2)NC2(CCCC2)C(C#N)C1=O (stereo unspecified)
  -0.1	7
- CC(NC(=O)NCc1ccccc1)c1nc(-c2ccncc2)n[nH]1 (stereo unspecified)
  -11	-9
- Cc1cccc(C=Nc2cccc(O)c2)c1
  14	-5
- CN(C(=O)Cn1nc(Cc2cccnc2)c2ccccc2c1=O)C1CCCCC1
  0.2	15
- Oc1ccc(CNc2ccc(Cl)cn2)c2cccnc12
  ·	18
- N#CC(C#N)(CC(=O)N1CCCc2ccccc21)CC(=O)N1CCCc2ccccc21
  ·	-11
- O=C(CSc1ncccc1C(=O)O)NC12CC3CC(CC(C3)C1)C2
  ·	-10
- COc1ccc(C2OC(=O)c3ccccc3S2)cc1 (stereo unspecified)
  1.2	0
- CCn1c(=O)c(=O)[nH]c2cc(C(=O)N3CCN(c4ccccc4O)CC3)ccc21
  ·	-10
- N#Cc1ccsc1/N=C/c1ccccc1C(F)(F)F
  -0.7	·
- O=C(NC1CCCCC1)/C(=N\O)c1ccccc1
  ·	2
- C=CCn1c(SCc2nc3ccccc3[nH]2)nnc1-c1ccccc1
  ·	7
- N#CSCc1nc2ccccc2c2nc3ccccc3n12
  0.3	3
- Cc1ccc(S(=O)(=O)N(C)CC(=O)O)cc1
  -0.7	7
- O=C(CCCOc1ccccc1)NC1CCSC1=O (stereo unspecified)
  0.7	0
- CC(C)C(O)(C(=O)OC[C@@H]1CCN2CCC[C@@H]12)C(C)O (stereo partly specified)
  0.2	-1
- CCCSc1nsc(NC(=O)/C=C/c2cccs2)n1
  ·	-6

Other results
Results follow in this order: MgrA-DNA mod	Sa helicase inh
- COC(=O)c1cccc(N2C(=O)C3C4C=CC(C)(O4)C3C2=O)c1 (stereo unspecified)
  -6.9	5
- Cc1[nH]c2ccccc2c1-c1ncc(C(F)(F)F)cc1Cl
  -0.4	·
- S=C(NC1CCCCCC1)NC1CC1
  -1.0	0
- Cc1ccc(-c2ocnc2C(=O)N2CCOCC2)cc1
  ·	15
- O=C(CN1C(=O)S/C(=C/c2ccc(Cl)cc2)C1=O)N1CCCCCC1
  2.1	8
- O=C(CSC1=NCCS1)NC1CCCC1
  ·	-11
- Cc1ccc(N2C(=O)c3ccccc3C2(O)c2ncc[nH]2)cc1 (stereo unspecified)
  2.2	9
- CCc1c(C)nc2ccc(C)cc2c1Cl
  -1.1	22
- CO[C@@]1(NC(=O)C(C(=O)O)c2ccc(O)cc2)C(=O)N2C(C(=O)O)=C(CSc3nnnn3C)CO[C@@H]21 (stereo partly specified)
  2.8&16	·
- CCOC(=O)CCSc1n[nH]c(=S)s1
  3.7	·
- O=c1c2ccccc2c(C=NCc2ccncc2)c(O)n1-c1ccccc1Cl
  -0.4	10
